Mtb hypoxia rep: Mtb hypoxia fluorescent reporter inhibition; M. tuberculosis hypoxia-regulated fluorescent reporter, fluorescence; fluorescence inhibition, % (no concentration beside the values); 300,000 tested, 0.1% active; AID 1159583;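 active means 35 to 45% if threefold the growth effect, above 45% if 1.5-fold the growth effect; inactive means the rest, general growth blockers included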;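 further: wells of about 50 µL received 100 nL stock; 0% = vehicle wells and 100% = reference inhibitor wells; whole bacteria with a GFP reporter of the hypoxia response; strong numbers were not always called active; many hits fall short of the cut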
PrP UTR inh: inhibition of PrP 5' UTR reporter expression; cell-based PrP 5' UTR mRNA reporter, plate reader; inhibition, % (no concentration beside the values); 340,000 tested, 0.35% active;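 active means every replicate at 50% or more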;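 further: 0 = median of the neutral control wells; tested in H4 reporter cells; numbers are from one replicate; inactives centre near -14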
Autofluor counter: counter-screen for toxin protease inhibitors: compound fluorescence | compound autofluorescence counterscreen, microsphere flow cytometry; active compounds read high | fluorescence intensity (concentration not given with the values) | 360,000 tested, 3.1% active | AID 624483;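 active means at least 3 SD above the mean of all compounds, about 16000 in these data; inconclusive means too few beads counted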;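 further: 100 nL of 1 mM stock went into each well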
Sa ugtP lethal: compounds lethal to S. aureus RN4220 ugtP deletion mutant. OD600 growth, 16 h; some inactives read as strong as hits. growth inhibition, % (no concentration beside the values). 330,000 tested, 0.54% active. AID 1259309;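 active means z-score under -3 and OD600 up to 0.15 on both plates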;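 further: plate controls were untreated wells for no effect and antibiotic for full effect; wells of about 80 µL received 100 nL stock; the first replicate is given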
Sa RN4220 lethal: kills Staphylococcus aureus RN4220; S. aureus RN4220 growth, OD600, 16 h; inhibition, % (test concentration not listed); 330,000 tested, 0.33% active; AID 1259311;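 active means z-score of -3 or lower and OD600 up to 0.18 on both plates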;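 further: plate controls were untreated cells for no effect and reference antibiotic for full effect; stock transfer was 100 nL into about 80 µL; one replicate is shown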
BJeLR viability: BJeLR cell viability loss; 300,000 tested, 0.17% active; BJeLR (HRASV12) viability, CellTiter-Glo ATP luminescence, 48 h; reference of the scale not given here; AID 1554; inhibition, % (test concentration not listed);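 active means replicate mean above 50%; inconclusive means above 50% but judged a plate artefact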;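 further: 50 nL library stock added to about 25 µL; numbers are from one replicate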
Mtb hypoxia rep growth: second read-out of Mtb hypoxia rep, no call of its own (marks repeat the call); growth inhibition, %; measured here: M. tuberculosis growth (absorbance);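 0% = vehicle and 100% = reference antibiotic; read after six days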
Numbers without * were called inactive.

COc1ccc(/C(O)=C2/C(=O)C(=O)N(CC3CCCO3)C2c2ccc(O)c(OC)c2)cc1 (configuration not stated) was read as Mtb hypoxia rep 5, PrP UTR inh -17, Autofluor counter 4701, Sa ugtP lethal 3, Sa RN4220 lethal 5.3, BJeLR viability -8 and Mtb hypoxia rep growth 17.
`CC(CC(=O)Nc1cc(Cl)ccc1Cl)=NNC(=O)c1ccccc1Br` gave Mtb hypoxia rep 10, Sa ugtP lethal 7, Sa RN4220 lethal 9.9 and Mtb hypoxia rep growth 6.
Screening CCOC(=O)C(C)Sc1nnc(-c2c[nH]c3ccccc23)n1C (configuration not stated) returned Mtb hypoxia rep 6, PrP UTR inh -3, Autofluor counter 5922, Sa ugtP lethal -3, Sa RN4220 lethal -12, BJeLR viability 0 and Mtb hypoxia rep growth 12.
`O=C(c1ccc2c(c1)OCO2)N(c1ccc(Br)cc1)C1C=CS(=O)(=O)C1` (configuration not stated) gave Mtb hypoxia rep 4, PrP UTR inh -11, Autofluor counter 4350, Sa ugtP lethal 5, Sa RN4220 lethal 5.6, BJeLR viability 2 and Mtb hypoxia rep growth -2.
Screening CC(C)N(C)S(=O)(=O)c1ccc(NC(=O)C2=COCCO2)cc1 returned Mtb hypoxia rep 2, PrP UTR inh -14, Autofluor counter 2814, Sa ugtP lethal 12, Sa RN4220 lethal 8.2 and Mtb hypoxia rep growth -7.
Screening Cn1c(=O)cc(SCC(=O)N2CCC3(CC2)OCCO3)c2ccccc21 returned Mtb hypoxia rep 6, PrP UTR inh -17, Autofluor counter 3964, Sa ugtP lethal 3, Sa RN4220 lethal -1.5, BJeLR viability -8 and Mtb hypoxia rep growth 6.
`CC(=O)c1ccccc1NC(=O)CSc1n[nH]c(=O)n1C1CC1` gave Mtb hypoxia rep 8, PrP UTR inh -1, Autofluor counter 3891, Sa ugtP lethal -1, Sa RN4220 lethal 1.7 and Mtb hypoxia rep growth 7.
NS(=O)(=O)c1ccc(-n2ncc3c(=O)[nH]c(SCC(=O)Nc4nccs4)nc32)cc1 was read as Mtb hypoxia rep -2, PrP UTR inh -21, Autofluor counter 5972, Sa ugtP lethal -4, Sa RN4220 lethal 4.4, BJeLR viability -10 and Mtb hypoxia rep growth 3.
Screening CN(C)CCn1c(=O)n(Cc2ccco2)c(=O)c2c3c(sc21)CCCCC3 returned Mtb hypoxia rep 5, PrP UTR inh -22, Autofluor counter 11382, Sa ugtP lethal 2, Sa RN4220 lethal -1.4, BJeLR viability -5 and Mtb hypoxia rep growth 3.
NNC(=O)c1sc2cc(C(F)(F)F)cnc2c1-c1cccs1 was read as Mtb hypoxia rep 7, PrP UTR inh -37, Autofluor counter 4710, Sa ugtP lethal -2, Sa RN4220 lethal 17, BJeLR viability 3 and Mtb hypoxia rep growth 5.
`O=[N+]([O-])c1cccc(/C=N/Nc2nc(N3CCCCC3)nc(N3CCCCC3)n2)c1` gave PrP UTR inh -11, Autofluor counter 4807 and BJeLR viability -6.
Screening CCOCCCNc1nc2c(c(=O)n(C)c(=O)n2C)n1CCCc1ccccc1 returned Mtb hypoxia rep 4, PrP UTR inh 9, Autofluor counter 4505, Sa ugtP lethal 0, Sa RN4220 lethal 2.4, BJeLR viability 1 and Mtb hypoxia rep growth 16.
For CCCn1c(=O)[nH]c(=O)c2c(C(F)(F)F)cc(-c3ccc(C)cc3)nc21 the results were Mtb hypoxia rep 11, PrP UTR inh -3, Autofluor counter 4137, Sa ugtP lethal 47, Sa RN4220 lethal 5.6, BJeLR viability 7 and Mtb hypoxia rep growth 12.
`O=C(c1ccccc1)N(NC(=O)C(O)(c1ccccc1)c1ccccc1)c1cccc(F)c1` gave Mtb hypoxia rep 4, PrP UTR inh -11, Autofluor counter 2502, Sa ugtP lethal 3, Sa RN4220 lethal 3.1, BJeLR viability -18 and Mtb hypoxia rep growth -2.
For COc1ccc(CCn2c(NN=C3CCCC3)nc3c2c(=O)[nH]c(=O)n3C)cc1 the results were Mtb hypoxia rep -2, PrP UTR inh -11, Autofluor counter 3888, Sa ugtP lethal 3, Sa RN4220 lethal 3.3, BJeLR viability -2 and Mtb hypoxia rep growth -7.

6 compounds from above, sorted by heavy-atom count, rising.
NNC(=O)c1sc2cc(C(F)(F)F)cnc2c1-c1cccs1 was read as Mtb hypoxia rep 7, PrP UTR inh -37, Autofluor counter 4710, Sa ugtP lethal -2, Sa RN4220 lethal 17, BJeLR viability 3 and Mtb hypoxia rep growth 5.
`CC(=O)c1ccccc1NC(=O)CSc1n[nH]c(=O)n1C1CC1` gave Mtb hypoxia rep 8, PrP UTR inh -1, Autofluor counter 3891, Sa ugtP lethal -1, Sa RN4220 lethal 1.7 and Mtb hypoxia rep growth 7.
`CC(CC(=O)Nc1cc(Cl)ccc1Cl)=NNC(=O)c1ccccc1Br` gave Mtb hypoxia rep 10, Sa ugtP lethal 7, Sa RN4220 lethal 9.9 and Mtb hypoxia rep growth 6.
Screening CCOCCCNc1nc2c(c(=O)n(C)c(=O)n2C)n1CCCc1ccccc1 returned Mtb hypoxia rep 4, PrP UTR inh 9, Autofluor counter 4505, Sa ugtP lethal 0, Sa RN4220 lethal 2.4, BJeLR viability 1 and Mtb hypoxia rep growth 16.
`O=[N+]([O-])c1cccc(/C=N/Nc2nc(N3CCCCC3)nc(N3CCCCC3)n2)c1` gave PrP UTR inh -11, Autofluor counter 4807 and BJeLR viability -6.
COc1ccc(/C(O)=C2/C(=O)C(=O)N(CC3CCCO3)C2c2ccc(O)c(OC)c2)cc1 (configuration not stated) was read as Mtb hypoxia rep 5, PrP UTR inh -17, Autofluor counter 4701, Sa ugtP lethal 3, Sa RN4220 lethal 5.3, BJeLR viability -8 and Mtb hypoxia rep growth 17.

(list continues)
For CCOc1cc(S(=O)(=O)NCCCN2CCOCC2)c(C)cc1C the results were Mtb hypoxia rep 8, PrP UTR inh 2, Autofluor counter 4958, Sa ugtP lethal 4, Sa RN4220 lethal 4.9, BJeLR viability 0 and Mtb hypoxia rep growth 5.
`Cc1ccc(F)c(C2C3C=CCC(C)C3C(=O)N2Cc2ccccc2)c1` (configuration not stated) gave Mtb hypoxia rep 0, Sa ugtP lethal 8, Sa RN4220 lethal 1.3 and Mtb hypoxia rep growth -6.
For O=C(CN1CCC(O)CC1)N1c2ccccc2C=Cc2ccccc21 the results were PrP UTR inh -7, Autofluor counter 4880, Sa ugtP lethal -1, Sa RN4220 lethal 1.9 and BJeLR viability -2.
`CC(C)(C)n1cnc2cc(NC(=O)c3cccs3)ccc21` gave Mtb hypoxia rep 10, PrP UTR inh -72, Autofluor counter 4385, Sa ugtP lethal 6, Sa RN4220 lethal -2.4, BJeLR viability -4 and Mtb hypoxia rep growth 7.
O=C(c1ccc(O)cc1)c1ccc(C(=O)O)c(C(=O)O)c1 was read as Mtb hypoxia rep -5, PrP UTR inh -21, Autofluor counter 5967, Sa ugtP lethal -7, Sa RN4220 lethal 8.0, BJeLR viability 6 and Mtb hypoxia rep growth 1.
`CSc1nc(N2CCN(C)CC2)c2c(c1C#N)CC(C)(C)OC2` gave Mtb hypoxia rep -1, PrP UTR inh -21, Autofluor counter 5044, Sa ugtP lethal 7, Sa RN4220 lethal 0.5, BJeLR viability 5 and Mtb hypoxia rep growth 5.
CC(C)C(=O)Nc1cccc(C(=O)Nc2ccc3c(c2)OCO3)c1 was read as Mtb hypoxia rep 4, PrP UTR inh -64, Autofluor counter 4170, Sa ugtP lethal 0, Sa RN4220 lethal 5.4, BJeLR viability -15 and Mtb hypoxia rep growth 13.
For COc1ccc(NS(=O)(=O)c2cccc(C(=O)N(C)CC(=O)Nc3ccc(C)cc3)c2)cc1 the results were Mtb hypoxia rep 7, PrP UTR inh -3, Autofluor counter inconclusive, Sa ugtP lethal 3, Sa RN4220 lethal 0.5, BJeLR viability 5 and Mtb hypoxia rep growth 7.
C=CCNC(=O)/C(C#N)=C/c1ccccc1OCc1ccc(C(=O)OC)cc1 was read as Mtb hypoxia rep -4, PrP UTR inh -46, Autofluor counter 2224, Sa ugtP lethal -25, Sa RN4220 lethal 12, BJeLR viability 8 and Mtb hypoxia rep growth 11.
For CC(=O)Nc1ccc(NC(=O)Cc2ccc(S(=O)(=O)N3CCCCC3)s2)cc1 the results were Mtb hypoxia rep 0, PrP UTR inh -26, Autofluor counter 1846, Sa ugtP lethal -4, Sa RN4220 lethal 4.1, BJeLR viability 3 and Mtb hypoxia rep growth 5.
`CN(C)CCOC(=O)c1cn(Cc2ccccc2)c2ccccc12` gave PrP UTR inh -9, Autofluor counter 4271, Sa ugtP lethal -1, Sa RN4220 lethal -3.3 and BJeLR viability 9.
For CCOC(=O)Cn1nc(C)c(NC(=O)c2cccc([N+](=O)[O-])c2)c1C the results were Mtb hypoxia rep -1, PrP UTR inh -7, Autofluor counter 5318, Sa ugtP lethal 11, Sa RN4220 lethal 2.8, BJeLR viability -1 and Mtb hypoxia rep growth 1.
`COc1cc2nc(CN(C)Cc3ccc(SC)cc3)[nH]c(=O)c2cc1OC` gave Mtb hypoxia rep -2, PrP UTR inh -15, Autofluor counter 4110, Sa ugtP lethal -5, Sa RN4220 lethal -0.8, BJeLR viability 8 and Mtb hypoxia rep growth 18.
For O=c1c2ccccc2oc2ccc(C#CC3(O)CCCCC3)cc12 the results were Mtb hypoxia rep 2, PrP UTR inh 37, Autofluor counter 3943, Sa ugtP lethal 10, Sa RN4220 lethal -2.0, BJeLR viability -4 and Mtb hypoxia rep growth 5.
`C=CCn1c(SCC(=O)O)nc2sc(CC)cc2c1=O` gave Mtb hypoxia rep 10, PrP UTR inh -25, Autofluor counter 4544, Sa ugtP lethal 15, Sa RN4220 lethal 4.9, BJeLR viability -7 and Mtb hypoxia rep growth 5.
For O=c1[nH]c2cccnc2n(CCNc2ncc(C(F)(F)F)cc2Cl)c1=O the results were Mtb hypoxia rep -2, PrP UTR inh -31, Autofluor counter 3001, Sa ugtP lethal -7, Sa RN4220 lethal -2.6, BJeLR viability 0 and Mtb hypoxia rep growth 0.
O=C(c1cc(-c2ccccn2)nc2ccc(Cl)cc12)N1CCN(CCc2ccccc2)CC1 was read as Mtb hypoxia rep 6, PrP UTR inh -18, Autofluor counter 4655, Sa ugtP lethal 6, Sa RN4220 lethal -3.6, BJeLR viability -4 and Mtb hypoxia rep growth 0.
`COc1cc(/C=C2\SC(=O)N(CCN)C2=O)ccc1OS(=O)(=O)c1cc(C)ccc1C` gave Mtb hypoxia rep -1, PrP UTR inh -19, Autofluor counter 2996, Sa ugtP lethal 21, Sa RN4220 lethal -6.8, BJeLR viability 5 and Mtb hypoxia rep growth 3.
Screening CCOc1ccc(NC(=O)CSc2nnc(C)n2Cc2ccccc2)cc1 returned PrP UTR inh -2, Autofluor counter 4486, Sa ugtP lethal 2, Sa RN4220 lethal 0.0 and BJeLR viability -1.
For Cc1ccc(-c2csc(N3CCN(c4ccc5nc(-c6ccncc6)n(CCN6CCCCC6)c5c4)CC3)n2)cc1 the results were Mtb hypoxia rep 0, PrP UTR inh -9, Autofluor counter 2654, Sa ugtP lethal 11, Sa RN4220 lethal 4.2, BJeLR viability -6 and Mtb hypoxia rep growth -3.
`CCOC(=O)C1(S(=O)(=O)c2ccc(Cl)cc2)CCN(Cc2ccccc2)CC1` gave Mtb hypoxia rep 7, PrP UTR inh -11, Autofluor counter 22181*, Sa ugtP lethal 8, Sa RN4220 lethal 7.4, BJeLR viability 2 and Mtb hypoxia rep growth 10.
N#CCc1ccc(Oc2ncccn2)cc1 was read as Mtb hypoxia rep 14, PrP UTR inh -6, Autofluor counter 3967, Sa ugtP lethal -3, Sa RN4220 lethal -1.1, BJeLR viability 4 and Mtb hypoxia rep growth 1.
Screening O=S(=O)(NC1CCCCC1NCc1ccco1)c1ccc(Cl)cc1 (configuration not stated) returned Mtb hypoxia rep -1, PrP UTR inh -12, Autofluor counter 5384, Sa ugtP lethal 1, Sa RN4220 lethal 0.1, BJeLR viability 17 and Mtb hypoxia rep growth -19.
For Cc1c(Cl)cnc(NC(=O)COC(=O)c2cccc(S(=O)(=O)N3CCc4ccccc4C3)c2)c1Cl the results were Mtb hypoxia rep 5, PrP UTR inh -23, Autofluor counter 2536, Sa ugtP lethal 85, Sa RN4220 lethal 7.2, BJeLR viability 21 and Mtb hypoxia rep growth 2.
